# Screens as filed in PubChem.
# gsp ag = activates gsp, the McCune-Albright syndrome mutation | gsp mutant cells, cAMP HTRF, 30 min; control for the full effect not named in the record | AID 624287 | 340,000 compounds, 0.13% hits | Potency, µM (highest dose often 76.9 µM), without a hit: at the top dose activation (cAMP increase), actives largely listed as activators; active = well fitted activation curve with a large enough effect; inconclusive = small, poorly fitted or top-dose-only effect, or another doubt; inactive = no such curve, though single readings can be large or run the other way; cell line not stated here;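 also: phosphodiesterase inhibitor Ro 20-1724 added with compounds to block cAMP breakdown; potency is read from the fitted curve at half-maximal effect; nearly all actives have a fitted effect of over 60% in size; about a fifth of the inactives were tested at one dose only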
#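 Cells stably selected in G418 were plated at 2000/well, grown 16-24 hr, then given compounds in DMSO with the PDE inhibitor […] (300 uM solution added) for 30 min at 37C; cAMP was read by HTRF.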
# gsp antagonist = gsp mutant antagonism. gsp-mutant cells, cAMP HTRF, 30 min; control for the full effect not named in the record. Potency, µM (titrated, usually from 76.9 µM), inactives show at the highest dose activity change, negative = inhibition, actives largely listed as inhibitors. 340,000 compounds, 0.4% hits. AID 624288; active = falling curve of any shape with a large fitted effect; inconclusive = falling curve, mostly with a smaller effect; inactive = flat or rising curve; cell line not stated here;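 also: intracellular cAMP measured with PDE inhibitor Ro 20-1724 present during compound exposure; potency is read from the fitted curve at half-maximal effect; % is scaled to controls: 0 for no effect and ±100 for the full control effect; nearly all actives have a fitted effect of over 65% in size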
#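 HTRF cAMP measurement after 30 min RT detection following 30 min, 37C compound treatment alongside […] (added as 300 uM solution) in G418-selected cells seeded at 2000/well and grown 16–24 h.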
# ClpP mod = qHTS Assay for Activators of ClpP; ATP-dependent Clp protease proteolytic subunit (Bacillus subtilis (strain 168)), P80244; purified B. subtilis ClpP, FRET peptide cleavage, 20 min; Potency, µM (top dose mostly 57.5 µM), inactives show at the top dose activity change, negative = active; 340,000 compounds, 1.9% hits; active = well fitted falling curve with a large enough effect; inconclusive = small, poorly fitted or top-dose-only effect; inactive = no such curve, though single readings can be large or run the other way; also: potency is read from the fitted curve at half-maximal effect; the source files actives as falling curves though it sought activators and does not explain the sign; nearly all actives have a fitted effect of over 65% in size; many hits overshoot -100%
#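 ClpP 10 microg/mL final, pH 8 Tris/KCl buffer with BSA, glycerol, Tween-20; compound pinned in; FRET-FV substrate; RT 20 min; Ex320/Em430; ΔFRET vs ADEP 5.8 microM, DMSO, no enzyme.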
# TRPV1 potentiator = human TRPV1 potentiation; 320,000 compounds, 0.02% hits; potentiation, % at 8.33 µM; TRPV1-expressing cells, Fluo-8 calcium influx, capsaicin EC20 potentiation; host cell line not named in the record; control for the full effect not named in the record; Q8NER1; AID 540277; active means potentiation above 80%; inconclusive means 30% to 80%; inactive means below 30%; also: 0% is about no effect
# Target sequence (Q8NER1 whole entry, looked up): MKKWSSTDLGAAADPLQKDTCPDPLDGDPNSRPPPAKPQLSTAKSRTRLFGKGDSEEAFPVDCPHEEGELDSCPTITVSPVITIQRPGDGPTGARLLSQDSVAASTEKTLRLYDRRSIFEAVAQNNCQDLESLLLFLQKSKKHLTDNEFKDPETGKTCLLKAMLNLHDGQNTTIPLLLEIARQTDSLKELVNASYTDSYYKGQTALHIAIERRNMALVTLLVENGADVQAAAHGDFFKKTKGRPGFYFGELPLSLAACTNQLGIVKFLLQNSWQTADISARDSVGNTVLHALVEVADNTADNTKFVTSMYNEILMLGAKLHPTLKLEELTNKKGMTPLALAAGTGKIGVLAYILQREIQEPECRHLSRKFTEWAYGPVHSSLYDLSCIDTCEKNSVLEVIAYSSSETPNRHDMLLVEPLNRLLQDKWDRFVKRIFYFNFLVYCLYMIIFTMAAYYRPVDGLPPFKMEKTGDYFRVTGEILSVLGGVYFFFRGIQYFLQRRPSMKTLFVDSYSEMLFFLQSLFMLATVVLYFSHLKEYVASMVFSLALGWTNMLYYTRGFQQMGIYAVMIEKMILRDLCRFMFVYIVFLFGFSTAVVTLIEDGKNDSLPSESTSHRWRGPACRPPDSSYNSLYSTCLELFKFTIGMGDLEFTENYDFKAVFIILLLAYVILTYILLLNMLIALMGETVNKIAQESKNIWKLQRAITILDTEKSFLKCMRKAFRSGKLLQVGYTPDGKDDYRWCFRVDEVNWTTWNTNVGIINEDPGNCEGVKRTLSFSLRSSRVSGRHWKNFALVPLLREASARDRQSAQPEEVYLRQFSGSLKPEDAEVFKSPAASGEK
#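 TRPV1-expressing cells were cultured overnight at 35.5C and loaded with Fluo-8 calcium dye for 40 to 90 min at room temperature. After a 10 s baseline, compound was added and calcium influx was read kinetically for 3 min (ex 480/em 520 nm).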
# CtBP-E1A blk = inhibitors of CtBP/E1A interaction. AlphaScreen GST-E1A/His-CtBP binding, 1536-well; hits give low values; control for the full effect not named in the record. activity change, % (concentration not given with the values). 340,000 compounds, 0.49% hits; in the data active means activity change below about -65%; inconclusive means about -30% to -65%; inactive means above about -30%; also: % is scaled to controls: 0 for no effect and ±100 for the full control effect
#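 Homogeneous bead-based format: GST-tagged E1A captured on glutathione donor beads, His-tagged CtBP on nickel acceptor beads; compounds precede bead addition by 2 h at 37 °C.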
# Menin MLL FP FL = menin-MLL binding inhibition, fluorescein peptide; Fluorescence polarization, fluorescein-MLL peptide displacement from menin; FP activity change, % at 61.4 µM; 290,000 tested, under 10 active; AID 1766; inconclusive = falling polarisation curve, or a change in total fluorescence; inactive = total fluorescence flat and polarisation flat or rising; no compound was filed as active; the % refers to the polarisation; negative = inhibition;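 also: % of control where 0% means no effect; inhibitors lower the polarisation; unlabelled MLL peptide was the positive control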
# Sfp PPTase inh = blocks B. subtilis Sfp PPTase activity. Biochemical Sfp PPTase activity, qHTS. Potency, µM, for inactives: max response, negative = inhibition, actives largely listed as inhibitors. 310,000 compounds, 3.5% hits. AID 1490. Q9F4F7; active = well fitted inhibition curve with a large enough effect; inconclusive = small, poorly fitted or top-dose-only effect, or another doubt; inactive = no such curve, though single readings can be large or run the other way;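 also: the enzyme is Sfp with the accession as filed and its product quenches rhodamine fluorescence; potency is read from the fitted curve at half-maximal effect; 0% = enzyme reaction without inhibitor and -100% = no enzyme wells; top concentration of the series not given in the record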
#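 Sfp 15 nM + cpd, 15 min RT; start w/ rhodamine-CoA 5 uM, BHQ-2-YbbR 12.5 uM (final); 50 mM Hepes pH 7.6, 10 mM MgCl2, 0.01% NP-40, 0.01% BSA; read 525/598 nm at 0 and 30 min.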
# * marks the source's active call; other numbers are inactive results; ? = inconclusive; . = not tested or not shown; [ ] = another dose, or the depositor's remark.
no.	compound	gsp ag	gsp antagonist	ClpP mod	TRPV1 potentiator
1	O=C(NNC(=O)C1CCN(S(=O)(=O)c2c(Cl)cccc2Cl)CC1)c1ccccc1O	2%[15.4 µM]	-3%	?	4
2	Cc1cc(C(=O)CSc2nn3c(=O)c(C(C)(C)C)nnc3s2)c(C)n1C1CC1	-14%	-15%	.	-1
3	O=C(CCN1CCCO1)N1CCCC(N2CCN(c3cccc(C(F)(F)F)c3)CC2)C1 (stereo not given)	-5%	4%	-14%	-3
4	O=C(CSc1ccc2nnc(-c3ccncc3)n2n1)Nc1ccc2c(c1)OCCO2	?	9%	-3.6%	2
5	CN(Cc1ccccc1)S(=O)(=O)c1csc(C(N)=O)c1	-15%	7%	0.7%	9
6	COCCCNC(=O)CNC(=S)N(Cc1cc(OC)c(OC)c(OC)c1)C1CCCC1	0%	-7%	0.8%	18
7	COc1ccc2[nH]c(=O)c(CN(C(=O)c3cccnc3)c3ccccc3C)cc2c1	-9%	-9%	.	-2
8	Cc1nn(Cc2ccc(F)cc2Cl)c(C)c1[N+](=O)[O-]	-21%	-1%	.	4
9	Cc1ccc(Cn2ncc3c(N4CCN(c5ccccc5C)CC4)ncnc32)cc1	-9%	-4%	?	19
10	CCCN1CCC(NC(=O)Cc2ccc(C)cc2)CC1	29%	9%	.	11
11	N/C(=N\OC(=O)COc1cc(Cl)c(Cl)cc1Cl)c1ccncc1	-31%[inhibitor]	-3%	.	-1
12	CC1(c2nnc(-c3ccccc3)o2)CC(c2cccnc2)=NO1 (stereo not given)	?	5%	-27%	18

no.	CtBP-E1A blk	Menin MLL FP FL	Sfp PPTase inh
1	?	.	.
2	-21	2.9	-25%
3	0	3.5	9%
4	-23	2.6	10%
5	.	2.6	11%
6	3	3.9	-6%
7	-15	5.3	8%
8	0	1.5	20%
9	1	-2.9	-3%
10	10	-0.4	0%
11	-17	9.0	22%
12	.	-2.9	-3%

# Next section (4 carried over from the part before).
no.	compound	gsp ag	gsp antagonist	ClpP mod	TRPV1 potentiator
9	Cc1ccc(Cn2ncc3c(N4CCN(c5ccccc5C)CC4)ncnc32)cc1	-9%	-4%	?	19
10	CCCN1CCC(NC(=O)Cc2ccc(C)cc2)CC1	29%	9%	.	11
11	N/C(=N\OC(=O)COc1cc(Cl)c(Cl)cc1Cl)c1ccncc1	-31%[inhibitor]	-3%	.	-1
12	CC1(c2nnc(-c3ccccc3)o2)CC(c2cccnc2)=NO1 (stereo not given)	?	5%	-27%	18
13	O=C(O)CC(NS(=O)(=O)c1cccc2nsnc12)c1ccc(F)cc1 (stereo not given)	5%	6%	1.6%	1
14	CN(C)CCCNC1CS(=O)(=O)CC1O (stereo not given)	-42%[inhibitor]	7%	-2.5%	1
15	Cc1ccc(S(=O)(=O)NNC(=O)CCC(=O)Nc2ccccc2Cl)cc1	-32%	7%	1.3%	-1
16	COc1ccc(CCNC(=O)CN2CCN(c3cccc(C(F)(F)F)c3)CC2)cc1	-11%	?	-2.2%	2
17	CCOc1ccccc1NCN1C(=O)c2ccccc2C1=O	-56%	.	1.1%	.
18	CC(=O)Nc1ccc(S(=O)(=O)Nc2nc(C)nc3sc4c(c23)CCC4)cc1	-5%	-9%	-9.7%	-1
19	O=C(C[n+]1ccccc1)c1ccc(NC(=O)c2ccccc2)cc1	-18%	5%	0.2%	0
20	CC(C)Nc1nc(Cl)nc(N(C#N)CN2C(=O)c3ccccc3S2(=O)=O)n1	-18%	-24%	1.1%	.
21	Cc1ccc(C)c(NC(=S)N2CCC(C(=O)c3ccc(F)cc3)CC2)c1	0%	.	-1.4%	.
22	COc1ccc(N(CC(=O)N2CCCC(C)C2)S(=O)(=O)c2c(C)nn(C)c2C)cc1 (stereo not given)	-31%[inhibitor]	0%	0.0%	.
23	Cc1cc(=O)n(C)c(=O)n1CCCCCN1CCCC1	-64%[inhibitor]	2%	-0.7%	?
24	CCN(CC)C(=O)CSc1ncnc2c(-c3cccs3)nsc12	3%	-31%	-22%	-1

no.	CtBP-E1A blk	Menin MLL FP FL	Sfp PPTase inh
9	1	-2.9	-3%
10	10	-0.4	0%
11	-17	9.0	22%
12	.	-2.9	-3%
13	5	0.9	19%
14	-7	0.4	-4%
15	5	.	4%
16	-9	0.6	8%
17	0	.	.
18	.	-1.6	37%[activator]
19	12	2.2	-7%
20	.	3.2	8%
21	3	.	.
22	7	2.1	0%
23	7	-4.5	-22%
24	-25	2.5	-16%

# Later entries.
no.	compound	gsp ag	gsp antagonist	ClpP mod	TRPV1 potentiator
25	CN=c1scc(-c2ccco2)n1/N=C/c1ccc(O)c(O)c1	-2%[15.4 µM]	6%	.	-1
26	O=C(NCC(=O)N(c1ccc(F)cc1)C(C(=O)NC1CCCCC1)c1cccnc1)c1ccco1 (stereo not given)	-3%[15.4 µM]	20%	1.1%	-6
27	O=C(Nc1ccccc1C(=O)N1CCOCC1)c1ccc(F)cc1	2%	4%	-2.3%	2
28	CC(OC(=O)CNC(=O)c1ccc(Cl)c([N+](=O)[O-])c1)C(=O)NC1CCCCC1C (stereo not given)	-6%[15.4 µM]	-9%	-0.1%	25
29	CC(=O)c1ccc(S(=O)(=O)Nc2ccc(-n3cnnn3)cc2)cc1	-9%	-17%	-0.2%	11
30	CCn1ncc(CNC(=O)CCSc2nc(-c3ccco3)cc(C(F)(F)F)n2)c1C	0%	-13%	-2.3%	-18
31	CCOc1cc(-c2nc(-c3ccncc3)no2)cc(OCC)c1OCC	-12%	6%	2.9%	21
32	O=c1c2ccccc2nc(/C=C/c2cccc(Br)c2)n1CCCO	?	-4%	.	-19
33	Cc1ccc(S(=O)(=O)NCc2ccc(C(=O)NCCCN3CCC(Cc4ccccc4)CC3)cc2)cc1	-5%[15.4 µM]	18%	0.3%	-6
34	CC(C(=O)Nc1ccccc1F)N1CCN(S(=O)(=O)c2ccc(C(F)(F)F)cc2)CC1 (stereo not given)	19%[15.4 µM]	-5%	.	-31
35	CCOC(=O)c1sc(NC(=O)CSc2nncn2C)nc1C	15%	-7%	.	1
36	COc1ccc(-c2nc3n(c2Br)CCC3)cc1	21%	2%	4.1%	4

no.	CtBP-E1A blk	Menin MLL FP FL	Sfp PPTase inh
25	.	6.5	50µM*
26	0	-1.6	12%
27	-3	0.8	19%
28	4	.	.
29	5	.	.
30	9	1.6	2%
31	2	4.4	-8%
32	-11	-5.5	1%
33	2	1.4	1%
34	0	.	.
35	2	0.3	2%
36	-6	1.3	-5%

# Structures from the list above with a thiophene ring, fused or not, in the order listed:
no.	compound	gsp ag	gsp antagonist	ClpP mod	TRPV1 potentiator
5	CN(Cc1ccccc1)S(=O)(=O)c1csc(C(N)=O)c1	-15%	7%	0.7%	9
18	CC(=O)Nc1ccc(S(=O)(=O)Nc2nc(C)nc3sc4c(c23)CCC4)cc1	-5%	-9%	-9.7%	-1
24	CCN(CC)C(=O)CSc1ncnc2c(-c3cccs3)nsc12	3%	-31%	-22%	-1

no.	CtBP-E1A blk	Menin MLL FP FL	Sfp PPTase inh
5	.	2.6	11%
18	.	-1.6	37%[activator]
24	-25	2.5	-16%
